Ba CapD inh = CapD enzyme inhibition. purified CapD enzyme, fluorescence intensity read-out; hits give low values; some hits fall short of the stated cut. z-score (concentration not given with the values). 140,000 tested, 0.23% active. AID 492967;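 active means z-score under -4 in either of two replicates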;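 further: stock transfer was 100 nL into about 40 µL; score is relative to mean and spread of the plate; one replicate is shown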
AID504770 = E. coli YBA685 growth inhibition, screen for V. cholerae RctB inhibitors; E. coli YBA685 rctB-dependent plasmid, OD600 growth, 3 h; hits give low values; z-score (no concentration beside the values); 130,000 tested, 0.27% active;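 active means z-score under -2 on both plates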;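 further: wells of about 30 µL received 100 nL stock; score is relative to mean and SD of the test wells; the first replicate is given; strong numbers were not always called active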
An asterisk follows results filed as active; . = not tested or not shown. An excerpt. The share of hits here may be higher or lower than overall.

canonical_smiles | AID504770 | Ba CapD inh
CCN1C(=O)C(=Cc2ccc(OC(F)F)cc2)C(=O)N(CC)C1=S | 0.6 | .
CNC(=O)COc1ccc(S(=O)(=O)N2CCOCC2)cc1C | -0.25 | -0.03
CCCCOc1ccc(S(=O)(=O)n2nnc3ccccc32)cc1 | . | -0.36
CCC1=NN(C(=O)C(C)C)C(O)(C(F)(F)F)C1 (centres undefined) | 0.15 | .
CCOc1cc(CNCC(c2ccc(OC)cc2)N2CCCCC2)ccc1OC(C)C(=O)N(C)C (centres undefined) | 0.6 | .
COc1cccc(C(=O)Nc2cccc3c2C(=O)NC3=O)c1OC | 0.05 | .
COc1ccc(C2C(C)C3(O)CC(C#N)(C(=O)N3)C2(C#N)C#N)cc1 (centres undefined) | -0.45 | 0.78
COc1cc(Br)c(C=Nc2c(C)n(C)n(-c3ccccc3)c2=O)cc1OC | . | -1.6
CCCNC(=O)c1cc(C)nn1-c1ccccc1 | -1 | 0.46
Cc1ccc(CNc2nc(N)n(-c3ccccc3)n2)cc1 | -0.5 | -0.15
CC(C)(C)c1ccc(NC(=O)OCCc2ccccc2Cl)cc1 | . | 0.56
COc1cccc(/C=N/c2c(-c3ccccc3)c(C(F)(F)F)nn2C)c1OC | 0.5 | -0.38
O=C(COc1ccccc1C(=O)O)NCc1ccccc1 | -0.9 | -1
COc1ccc(OC)c(NC(=O)Cn2cnc3c(nnn3Cc3ccc(F)cc3)c2=O)c1 | -0.65 | 0.35
COc1ccc(CCNC(=O)c2ccc3c(=O)n(-c4ccc(OC)c(OC)c4)c(=S)[nH]c3c2)cc1OC | . | 0.12
Oc1ccc(Br)cc1CN1CCCCC1 | . | -0.01
CN1CCN(c2ccc(NC(=O)Nc3ccc(C(F)(F)F)cc3)cc2)CC1 | 1 | -0.68
Cc1nc(C)c(/C(O)=C/c2nc3cc(Cl)ccc3oc2=O)o1 | 1.4 | 0.15
CC(O)CNc1ccc(C(F)(F)F)cn1 (centres undefined) | -0.65 | 2
CCOc1cc(C2C(C(=O)OCC(C)C)=C(C)NC3=C2C(=O)CC(c2cccs2)C3)cc([N+](=O)[O-])c1O (centres undefined) | . | -0.41
N=C1c2ccccc2CN1Nc1ncc(C(F)(F)F)cc1Cl | -1.4 | 0.29
O=C(O)C1CC=CCC1C(=O)N1CCN(c2ccc(C(F)(F)F)cc2)CC1 (centres undefined) | . | -0.44
CC1(C(=O)O)CCC(c2nc(N)n[nH]2)C1(C)C (centres undefined) | 0.15 | .
COc1cc(/C=c2\sc3nc4cc(C)c(C)cc4n3c2=O)ccc1OC(=O)N(C)C | . | 0.33
CCOC(=O)c1ccc(N2C(=N)S/C(=C\c3cnn(-c4ccccc4)c3)C2=O)cc1 | -0.55 | -0.08
Nc1cccc(-c2csc(N)n2)c1 | 0.1 | 2.5
O=C(O)CC1c2ccccc2CCN1S(=O)(=O)c1ccccc1 (centres undefined) | -1 | .
CN1CCN(c2ccc3nnc(CCC(=O)Nc4nccs4)n3n2)CC1 | 1.8 | 0.78
COc1ccc(CC(=O)NC(C)c2nnc(SCC(=O)Nc3cc(C)ccc3OC)n2C)cc1 (centres undefined) | 0.95 | 0.47
Cc1nc2ccccc2c(=O)n1/N=C/c1ccsc1 | -0.8 | -1.4

Some of the entries so far, with two lines to a compound:
Value order: AID504770	Ba CapD inh
O=C(O)CC1c2ccccc2CCN1S(=O)(=O)c1ccccc1 (centres undefined)
 : -1	.
COc1ccc(CCNC(=O)c2ccc3c(=O)n(-c4ccc(OC)c(OC)c4)c(=S)[nH]c3c2)cc1OC
 : .	0.12

Later entries
canonical_smiles | AID504770 | Ba CapD inh
CC(C)c1nc2ccc(Cl)cc2c2c1C(=O)N(C1CCN(Cc3ccccc3)C1)C2=O (centres undefined) | . | 0.17
Cc1cc(=O)oc2c1C(=O)CC(C)(C)C2 | -0.5 | 0.55
Cn1c(=O)c2[nH]c(=S)[nH]c2n(C)c1=O | -0.5 | .
N#CCSc1ccc(Br)cc1 | -0.65 | -0.12
COC(=O)CNc1nc(-c2ccncc2)nc2ccccc12 | -0.75 | 0.69
CCC(CC)C(=O)NCc1ccc2c(c1)cc(C)n2C | -0.55 | -0.6
CC(C)N(CC(N)=O)C(=O)Cc1coc2cc3c(cc12)CCC3 | 1.1 | .
OC[C@H]1O[C@@H](OCc2ccccc2)[C@H](O)[C@@H](O)[C@@H]1O | -0.4 | 0.24
COc1cccc(OC)c1C(=O)NN | 1.4 | 0.42
COc1cc(C2Nc3cccc4cccc(c34)N2)cc(I)c1O | -0.3 | 1.9
O=C(N1CCN(c2ccccc2)CC1)C1(S(=O)(=O)c2ccccc2)CC1 | -0.05 | 0.035
COc1cccc(OCCCN2CCNCC2)c1 | -0.9 | -0.27
Cc1oc(-c2ccc(C(=O)NCc3ccco3)cc2)nc1COc1ccccc1 | 0.15 | 0.71
O=C1NNC(=S)Nc2ccccc21 | -0.55 | 63
CCOC(=O)c1cccnc1SCC(=O)NCc1ccccc1 | -0.45 | -0.49
COc1ccc(Cl)cc1CN1CCCCC1 | -1.4 | -0.095
Cc1ccc(S(=O)(=O)N(Cc2ccccc2)CC(C)C(=O)O)cc1 (centres undefined) | -0.15 | .
COC(=O)C1CC2C=CC1C2 (centres undefined) | 1.2 | .
Cc1ccc(-c2nc3sc4nc5ccccc5nc4n3n2)cc1 | 0.8 | 2.5
COc1ccc(OC)c(C2CC(=O)C(C(C)C)C(c3cc(OC)ccc3OC)N2)c1 (centres undefined) | -1.1 | .
CCOc1ccc(CCNC(=O)C2c3ccccc3C(=O)N3CCc4ccccc4C23)cc1OCC (centres undefined) | -0.15 | 0.45
CC(=O)Nc1ccc(-c2cn(CC(=O)NN)cn2)cc1 | 0.9 | .
CCn1c(SCC(=O)O)nnc1-c1cccs1 | -0.95 | .
CO[C@H]1O[C@H](COC(C)=O)[C@@H](OC(C)=O)[C@H](OC(C)=O)[C@H]1OC(C)=O | -0.25 | 0.4
COc1ccc(-c2nnc(SCc3c(Cl)cccc3Cl)o2)cc1 | 0.1 | 0.43
CCN1CCN(C(=O)C2CCN(Cc3cc(Cl)ccc3O)CC2)CC1 | -0.45 | .
FC(F)(F)C1=CC(c2ccccc2)=NCCN1 | -0.05 | -4
CCS(=O)(=O)c1ccc2oc(SCC(=O)N3c4ccccc4CC3C)nc2c1 (centres undefined) | -0.2 | .
Cc1nc2c(C(=O)NCc3ccccc3Cl)c[nH]n2c(=O)c1Cl | 0.5 | 22
O=C(Nc1cc(Cl)ccc1N1CCCC1)c1cccc(S(=O)(=O)N2CCCC2)c1 | 0.1 | .
Cc1ccc(CSc2nc3c(c(Sc4ccc(C)cc4)n2)CCCC3)cc1 | . | 0.51
C=CCN1C(=O)/C(=C2/SC(C)=C(C)N2CC)SC1=Nc1c(C)n[nH]c1C | 2.7 | .
O=C(CNC(=O)c1ccccc1F)OC1CCOC1=O (centres undefined) | -1.1 | .
Cc1[nH]c(C)c(S(=O)(=O)N2CCCc3ccccc32)c1C(=O)N1CCCC1 | -0.7 | 0.85
O=S(=O)(Nc1ccc(N2CCN(c3ncccc3C(F)(F)F)CC2)nc1)c1ccc(Cl)cc1 | 1.6 | -1
Cc1c(C(=O)Oc2ccc(Cl)cc2)n(C)oc1=O | 1 | 9.9
CNC1(c2nnnn2-c2cccc(Cl)c2)CCCC1 | . | -0.27
COc1ccccc1-n1ccnc(SCC(=O)NC2CCCCC2)c1=O | -1.6 | .
CN(C)CC(C)(O)c1ccc(Cl)cc1 (centres undefined) | 0.15 | -1.2
O=C(N/N=C/c1c[nH]c2cc(OCc3ccccc3)ccc12)c1cccs1 | . | -0.89
CC(=O)OCc1ccc(C(=O)Nc2nccs2)cc1 | -0.9 | .
Cc1c(C(=O)NC2CCCC2)oc2ccc(S(=O)(=O)N(C)C3CCCCC3)cc12 | 0.3 | -0.78
CC(C)OC(NC(=O)c1ccccc1)(C(F)(F)F)C(F)(F)F | -0.5 | -0.76
Cc1ccc(N=C2c3ccccc3-c3ncccc32)cc1 | . | -0.48
CC1(C)Oc2ccc3ccc(=O)oc3c2/C(=C/N2CCCCC2)C1=O | 0 | 7.1
CCOC(=O)c1ccc(OC(=O)c2cccnc2Oc2ccccc2)c(Cl)c1 | . | 1.3
O=C(c1ccccc1NS(=O)(=O)c1cccc(C(F)(F)F)c1)N1CCC(c2c[nH]c3ccccc23)CC1 | . | -0.42
Cc1ccc(NC(=O)COc2cn(-c3ccccc3)nn2)cc1C | 1.1 | .
Cc1cccc(C)c1NC(=O)C1(N(C)C(=O)c2ccccc2F)CCC(C(C)(C)C)CC1 (centres undefined) | . | -0.24
CCOC(=O)c1c(-c2ccccc2)csc1/N=C/c1nc(-c2ccco2)oc1O | 0.85 | -0.15
CC(C(=O)Nc1nc2ccc(S(=O)(=O)N3CCOCC3)cc2s1)N1C(=O)c2ccccc2C1=O (centres undefined) | -0.6 | .
O=C(N/N=C/c1cccc2c1OCO2)c1ccccc1CCc1ccccc1 | . | 6.4
O=C(Nc1ccc(Cl)cc1C(=O)c1ccccc1)c1ccc(Cl)cc1Cl | . | 0.08
COCCN(C1CCN(C(=O)c2cccs2)CC1)S(=O)(=O)c1ccc(Cl)cc1 | . | -0.54
Clc1ccccc1CSc1nnc2c(n1)-c1cccc3cccc-2c13 | . | 0.21
CCOc1ccc(OCCNCc2cn(CCC#N)nc2-c2ccccc2)cc1 | 1.5 | .
CC(C)CNC(=O)CSc1nc(-c2ccc(F)cc2)cc(C(F)(F)F)n1 | -0.8 | 0.81
CCN(CC)c1nc2c(c(=O)n(Cc3ccccc3)c(=O)n2C)n1Cc1ccccc1 | -0.25 | .
COCc1nc2ccc(C)cc2c2c1C(=O)N(Cc1ccc(C)o1)C2=O | . | 0.48
O=C(Nc1nnc(C2CC2)s1)Nc1ccccc1C(=O)Nc1nnc(C2CC2)s1 | 0.55 | .

(further entries)
canonical_smiles | AID504770 | Ba CapD inh
Cc1ccc(OCC(O)CNCc2ccccc2)cc1C (centres undefined) | -0.25 | -0.39
CC1(C)CC(CCN)(Cc2ccccc2)CCO1 (centres undefined) | 0.05 | 0.62
CC(=C/C(=O)O)/C=C/c1ccccc1 | 0.85 | -0.59
CC1(O)N(CCN2C(=O)OC3(CCCCC3)C2(C)O)C(=O)OC12CCCCC2 (centres undefined) | . | -0.32
CC(=NCCCn1ccnc1)c1c(C(F)(F)F)[nH]n(-c2nc3ccccc3s2)c1=O | 2.2 | .
COC(=O)c1ccc(N2CCc3ccccc32)s1 | 0.3 | 21
Cc1ccc2oc(=O)n(S(C)(=O)=O)c2c1 | -2 | 0.34
CN1CCN(C(=O)CNC(=O)c2ccc(-c3ccccc3)cc2)CC1 | 0.45 | .
O=C(COC(=O)C1CCCN(C(=O)c2ccc(Cl)cc2)C1)c1ccc2c(c1)OCO2 (centres undefined) | -0.05 | .
C=C(C)C(=O)Nc1ccc2c(c1)OCCOCCOCCOCCO2 | . | -0.5
COC(=O)Cc1nc(NS(=O)(=O)c2ccc(OC(F)(F)F)cc2)sc1C | . | 0.04
Cc1ccc(N2C(=O)C(N3C(=O)c4c(Cl)c(Cl)c(Cl)c(Cl)c4C3=O)C2c2cccc(Br)c2)cc1Cl (centres undefined) | . | -0.38
Cn1c(CC(=O)Nc2ccccc2)c(Sc2ccccc2)c2ccccc21 | . | -0.31
CC(NC(=O)NC1CCCCC1)c1ccc2c(c1)OCO2 (centres undefined) | -0.6 | -1.5
COc1ccc(CNC(=O)c2cncc(Br)c2)cc1 | -0.5 | 0.61
Cc1nc2sccn2c(=O)c1S(=O)(=O)Nc1ccc2c(c1)OCCO2 | -0.45 | -1.8
Cc1cc(C)nc(Sc2ccc(NC(=O)c3ccc(C(F)(F)F)cc3)cc2)n1 | . | -0.38
CC(=O)N1CN(CCCn2ccnc2)Cc2c1sc1c2CCCC1 | 1.6 | -0.24
CCOC(=O)CC1NC(=O)c2ccccc21 (centres undefined) | -0.1 | .
COc1ccc(NC(=O)c2sc3nc4n(c(=O)c3c2C)CCCCC4)cc1 | -1 | -1.5
Cc1ccc(-n2c(C)csc2=NC(=O)c2ccccc2)cc1 | -0.35 | 7.1
O=C(CC(=O)N1CCc2ccccc21)N1CCc2ccccc21 | 0.1 | 0.11
CCC1(c2ccccc2)C(=O)N(COC)C(=O)N(COC)C1=O | -2.4 | 0.09
COc1ccc(NC(=O)C(c2ccc(C)cc2)N(C)C(=O)c2ccc(=O)[nH]c2)cc1 (centres undefined) | . | 0.64
CCNc1nc(NCC)n2c(SCC(=O)NC3=C(C(=O)OCC)C4CCCC4S3)nnc2n1 (centres undefined) | 0.65 | .
Nc1ccc(C(=O)O)c(O)c1 (tested in a mixture with another compound) | 0.25 | 1.2
CCS(=O)(=O)c1ncc(CO)n1CCc1ccccc1 | -1.1 | 0.17
CN(Cc1ccccc1)C(=O)c1cccc(F)c1 | -0.4 | .

One compound at a time (already shown). Values in the order: AID504770 | Ba CapD inh
Listed for `CC(=O)OCc1ccc(C(=O)Nc2nccs2)cc1` = -0.9 | .
Listed for `CCCNC(=O)c1cc(C)nn1-c1ccccc1` = -1 | 0.46
Listed for `Cc1cccc(C)c1NC(=O)C1(N(C)C(=O)c2ccccc2F)CCC(C(C)(C)C)CC1` (centres undefined) = . | -0.24
Listed for `CC(C)c1nc2ccc(Cl)cc2c2c1C(=O)N(C1CCN(Cc3ccccc3)C1)C2=O` (centres undefined) = . | 0.17
Listed for `COc1ccc(Cl)cc1CN1CCCCC1` = -1.4 | -0.095
